# Assay outcomes (PubChem BioAssay)
# Autofluor counter: counter-screen for toxin protease inhibitors: compound fluorescence; compound autofluorescence counterscreen, microsphere flow cytometry; hits give high values; fluorescence intensity (concentration not given with the values); 3.1% of 360,000 active; AID 624483;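 active means at least 3 SD above the mean of all compounds, about 16000 in these data; inconclusive means too few beads counted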;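 further: 100 nL of 1 mM stock went into each well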
# PrP 5UTR inh: suppresses PrP 5' UTR mRNA reporter expression. cell-based PrP 5' UTR mRNA reporter, plate reader. inhibition, % (concentration not given with the values). 0.35% of 340,000 active. AID 488862;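 active means every replicate at 50% or more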;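 further: 0 = median of the neutral control wells; tested in H4 reporter cells; numbers are from one replicate; inactives centre near -14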
# Mtb hypoxia inh: Mtb hypoxia fluorescent reporter inhibition; 0.1% of 300,000 active; fluorescence inhibition, % (test concentration not listed); M. tuberculosis hypoxia-regulated fluorescent reporter, fluorescence; AID 1159583;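 active means 35 to 45% if threefold the growth effect, above 45% if 1.5-fold the growth effect; inactive means the rest, general growth blockers included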;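 further: wells of about 50 µL received 100 nL stock; 0% = vehicle wells and 100% = reference inhibitor wells; whole bacteria with a GFP reporter of the hypoxia response; strong numbers were not always called active; many hits fall short of the cut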
# RN4220 kill: kills Staphylococcus aureus RN4220. 0.33% of 330,000 active. AID 1259311. inhibition, % (no concentration beside the values). S. aureus RN4220 growth, OD600, 16 h;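 active means z-score of -3 or lower and OD600 up to 0.18 on both plates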;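 further: plate controls were untreated cells for no effect and reference antibiotic for full effect; stock transfer was 100 nL into about 80 µL; one replicate is shown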
# BJeLR lethal: BJeLR cell viability loss; 0.17% of 300,000 active; inhibition, % (concentration not given with the values); AID 1554; BJeLR (HRASV12) viability, CellTiter-Glo ATP luminescence, 48 h; reference of the scale not given here;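 active means replicate mean above 50%; inconclusive means above 50% but judged a plate artefact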;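 further: 50 nL library stock added to about 25 µL; numbers are from one replicate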
# Sa ugtP lethal: growth inhibition of S. aureus ugtP deletion strain | AID 1259309 | growth inhibition, % (no concentration beside the values) | S. aureus RN4220 ugtP deletion, OD600 growth, 16 h; some inactives read as strong as hits | 0.54% of 330,000 active;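 active means z-score under -3 and OD600 up to 0.15 on both plates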;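 further: plate controls were untreated wells for no effect and antibiotic for full effect; wells of about 80 µL received 100 nL stock; the first replicate is given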
# Mtb hypoxia inh growth: further read-out of Mtb hypoxia inh, marked with its call; growth inhibition, %; measured here: M. tuberculosis growth (absorbance);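 0% = vehicle and 100% = reference antibiotic; read after six days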
# Active calls of the source: *; ? = inconclusive; . = no result given.
cpd	Structure	Autofluor counter	PrP 5UTR inh	Mtb hypoxia inh	Mtb hypoxia inh growth	RN4220 kill	BJeLR lethal	Sa ugtP lethal
1	Cc1ccccc1OCCc1c(C)[nH]c(=S)[nH]c1=O	2580	10	12	16	5.2	14	-6
2	COc1cc(C=NNc2ccc(S(N)(=O)=O)cc2[N+](=O)[O-])cc(OC)c1O	.	.	-1	4	6.3	.	11
3	Cc1ccc(C(C)C)c(OCCN2C(=O)NC(C)(C)C2=O)c1	.	-1	5	8	6.1	-7	-6
4	CCOc1ccc(NC(=O)CC2C(=O)N(c3ccccc3)C(=O)N2CCc2cccs2)cc1 (stereo not given)	2004	-8	5	-1	-0.4	-5	24
5	CCc1nnc(NC(=O)CSc2nnc(CSc3nc(C)cc(C)n3)o2)s1	10265	-24	1	3	5.0	4	-7
6	O=C(NCc1ccc2c(c1)OCO2)Nc1cccc2ccccc12	?	-8	2	-5	3.4	13	6
7	Cn1c(SCC(=O)N2CCOCC2)nnc1-c1ccncc1	2902	-5	-1	3	2.0	-8	0
8	COc1ccc(C(=O)C2CCCN(C(=O)c3ccc(C(C)=O)s3)C2)c(C)c1 (stereo not given)	6172	14	-5	8	2.5	6	3
9	CC(C)COC(=O)n1c(=O)oc2cc(S(=O)(=O)N3CCCCC3)ccc21	8030	-19	0	0	1.6	15	6
10	CCN(C[C@H]1N[C@@](C)(C(=O)OC)[C@H]2C(=O)N(Cc3ccccc3)C(=O)[C@@H]12)C(=O)Nc1ccc(Cl)cc1	3928	-3	-3	0	2.5	.	-2
11	O=C(CN1CCN(c2ccccn2)CC1)NCCc1ccccc1	4863	-25	.	.	6.5	-6	-1
12	CON(C)C(=O)CC(CNC(=O)OC(C)(C)C)c1ccc(Cl)cc1 (stereo not given)	2735	-12	7	1	-1.4	.	0
13	O=C(Nc1ccc(N2CCOCC2)cc1)C1(c2ccc(Cl)cc2)CCC1	3624	-12	-6	9	0.3	1	3
14	COc1ccc(C(=O)N2CCC(n3nccc3NC(=O)C3CC3)CC2)c(OC)c1OC	5714	-8	16	2	-0.7	0	1
15	O=C(NC1CCCC1)c1cccc(Cl)c1	4615	-11	.	.	3.1	2	9
16	COC(=O)c1cc(S(=O)(=O)NCc2ccc(Br)cc2)c[nH]1	5487	-17	-1	-6	2.3	5	6
17	CCOC(=O)c1c(-c2ccc(C)cc2)csc1NC1=NS(=O)(=O)c2ccccc21	2091	-11	8	2	6.4	13	12
18	O=C(COC(=O)c1ccccc1Nc1ccccc1)NCc1ccccc1	6895	-20	-3	-1	-6.6	11	1
19	CC(=O)N1CC(C)Oc2ccc(S(=O)(=O)Nc3ccc(Cl)cn3)cc21 (stereo not given)	5422	-23	5	2	4.7	0	-2
20	Cc1ccc(S(=O)(=O)Nc2cc(C(C(=O)OC(C)C)C(=O)C(F)(F)F)c(O)c3ccccc23)c(C)c1 (stereo not given)	9832	-11	10	2	16	-1	-1
21	Cc1cc(C)c(OCCCCn2cnc3ccccc3c2=O)c(C)c1	13613	.	3	7	7.3	1	22
22	COc1ccc(/C=C/C(=O)O)cc1S(=O)(=O)Nc1ccc2c(c1)OCO2	4367	4	6	1	-0.9	-4	-2
23	CCCc1sc(NN=Cc2ccccn2)nc1-c1ccc(F)cc1	.	.	-4	5	5.4	.	-33
24	CCCNCc1cc(OC)c(OCCC)cc1Cl	9995	2	5	7	1.5	4	-1
25	Cc1cc(=O)[nH]c(N/N=C/c2c(O)n(-c3ccccc3)c(=O)c3ccccc23)n1	2580	-10	7	4	15	2	-1
26	Cc1ccc(-c2nc3ccccc3c(=O)n2CCN2CCOCC2)cc1	?	-10	8	-4	3.0	-6	8
27	COc1cccc(CNc2ccc([N+](=O)[O-])cc2Cl)c1O	4694	-36	-1	8	2.8	2	10
28	CCOC(=O)N(C)OC(=O)Nc1ccc(Cl)c(Cl)c1	9566	-14	8	5	-2.1	-7	-12
29	C=C(C)CNC(=S)N/N=C/c1ccc([N+](=O)[O-])cc1	4814	-8	.	.	.	-2	.
30	Nc1nc2n(n1)C(c1cccc(Br)c1)CC(c1ccc(F)cc1)N2 (stereo not given)	5991	-15	.	.	4.9	-16	0
31	CC(=O)C(C(=N)N1CCN(C(c2ccccc2)c2ccccc2)CC1)=C(C)O	.	.	3	4	3.1	.	-1
32	Cc1cc(NC(=O)c2c(Cl)cccc2Cl)no1	3963	-30	4	0	2.6	9	-1
33	CCC(C)(C)NC(=O)CN(Cc1cccs1)C(=O)CNS(=O)(=O)c1ccc(F)cc1	4355	3	10	6	-0.3	1	3
34	COc1ccc2c(c1)C(=C(C#N)C#N)C(=O)N2CCc1ccccc1	3043	-15	.	.	.	-12	.
35	CCOc1ccc(C(=O)c2cc([N+](=O)[O-])ccc2N2CCOCC2)cc1	2491	58*	4	1	-0.8	53*	4
36	O=C(NN=Cc1ccc(OC(=O)c2ccccc2)cc1)c1cccnc1	.	.	-5	-5	0.4	.	-1
37	CO/N=C/c1ccc(N2CCN(C(=O)c3ccc(F)cc3)CC2)c([N+](=O)[O-])c1	6011	-16	.	.	.	1	.
38	CN(C)S(=O)(=O)c1ccc2c(c1)nc(CCC(=O)Nc1ccc3c(c1)OCO3)n2C	2321	-26	13	4	3.7	2	-1
39	COc1ccccc1S(=O)(=O)Cc1ccc(C(=O)NCC2CCCO2)o1 (stereo not given)	2751	-4	19	10	4.2	-16	1
40	C/C(Cc1ccccc1)=N\NC(=O)CNC(=O)c1ccc(F)cc1	4369	-10	.	.	.	1	.
41	CNC(=O)NC(=O)C(C)OC(=O)CCCc1nc2ccccc2s1 (stereo not given)	3176	-2	-1	0	4.3	-5	-11
42	COc1cc(NC(=O)CNC(c2ccccc2)c2ccccc2)cc(OC)c1OC	3668	-16	10	8	6.0	-3	32
43	CC1CN=C(N(C)C)N1CC1CCC(C(C)(C)C)CC1 (stereo not given)	.	.	11	9	-1.8	.	-1
44	COc1ccc(C(=O)NCCc2ccc(F)cc2)cc1OC	3467	-19	-4	4	9.9	14	6
45	O=C(O)CC1CCS(=O)(=O)C1 (stereo not given)	3329	-3	12	4	5.2	8	14
46	COc1ccc(C(=O)Nc2cccc(-c3csc(C)n3)c2)cc1S(=O)(=O)N1CCCC1	.	-5	2	1	-0.5	.	-2
47	Cc1noc(C)c1C(=O)N1CC(C)OC(C)C1 (stereo not given)	2404	16	.	.	1.1	4	11
48	C=CCn1c(-c2ccc3ncccc3c2)n[nH]c1=S	2808	3	2	1	1.6	-4	8
49	COc1ccccc1CN(Cc1nc2ccccc2c(=O)[nH]1)C(=O)Nc1cccc(C)c1	8199	-6	-4	-11	7.0	-11	-12
50	O=C(NCc1ccc(Cl)cc1)c1ccccc1CCc1ccccc1	1948	-14	2	-4	-1.4	5	3
51	Cc1ccc(NC(=O)CN(C)C(=O)c2ccc(Sc3nncn3C)c([N+](=O)[O-])c2)cc1	8721	-24	11	11	-2.3	.	4
52	COC(=O)Cc1cc(OC)c(OC)cc1S(=O)(=O)N(C)C	4374	-14	4	0	3.5	-8	6
53	O=C(O)CCN1Cc2ccccc2C1=O	6494	-14	2	-3	-0.9	-3	0
54	COc1ccc(NC(=O)CCN2CCN(S(=O)(=O)c3cc(Cl)ccc3OC)CC2)cc1	6261	-23	.	.	0.2	10	0
55	COc1ccc(/C(C)=N/N2CCOCC2)c(O)c1	4736	-2	.	.	.	9	.
56	O=C(C1CCN(S(=O)(=O)c2ccc(Cl)cc2)CC1)N1CCOCC1	.	-24	9	2	2.2	-1	4
57	O=C(NN=Cc1ccc(Cl)cc1Cl)c1n[nH]c2c1CCCC2	.	.	-8	5	5.0	.	0
58	Cc1ccc(CN2CCC(Oc3cccc(C(=O)NCc4cccnc4)c3)CC2)o1	5711	0	3	5	6.2	5	2
59	CSc1ncc(C(=O)Nc2cccc(Cl)c2C)c(C)n1	4057	-7	2	8	9.9	-6	14
60	O=C(c1ccc(N2C(=O)CCC2=O)cc1)N1CCN(c2ccccc2)CC1	2629	-4	11	5	0.9	5	8

# (continued)
cpd	Structure	Autofluor counter	PrP 5UTR inh	Mtb hypoxia inh	Mtb hypoxia inh growth	RN4220 kill	BJeLR lethal	Sa ugtP lethal
61	Cn1c(=O)c2c(nc(N3CCNCC3)n2Cc2cccc3ccccc23)n(C)c1=O	4230	-5	11	11	-1.9	-3	0
62	O=C(O)c1ccccc1OCCOc1ccccc1C(=O)O	4474	-15	.	.	2.3	3	5
63	CC[C@]12c3[nH]c4ccccc4c3CCN1C(=O)C(CC(=O)NCCN1CCOCC1)C[C@@H]2C(=O)N1CCN(C(=O)C2CC2)CC1 (stereo not given in full)	3936	-18	2	-1	1.2	.	1
64	O=C(NN=C/C(Br)=C/c1ccccc1)c1cnccn1	.	.	7	3	4.4	.	8
65	COc1ccc(-c2noc(-c3ccc(C)cc3)n2)cc1	3327	-128	4	3	-4.3	-12	13
66	CCC(NC(=O)COc1ccc([N+](=O)[O-])cc1)c1ccccc1 (stereo not given)	.	.	13	5	11	-1	10
67	Clc1ccc(C2=C3CCCCn4c(-c5ccccc5)c[n+](c43)C2)cc1	2892	-14	-1	12	7.5	6	-15
68	CCOP(=O)(OCC)c1nc(-c2cccc([N+](=O)[O-])c2)oc1N1CCCCC1	4303	-9	-3	7	6.5	-4	2
69	CCCNC(=O)c1nc2ncc(Br)cn2n1	4027	-16	0	0	0.0	-1	-2
70	O=C(COC(=O)CC12CC3CC(CC(C3)C1)C2)Nc1cccnc1Cl	4342	-19	7	10	5.6	-25	7
71	Cc1nc2ccc(Cl)cn2c1P(=S)(N1CCOCC1)N1CCOCC1	2950	-38	2	4	3.7	-11	-9
72	O=C(Nc1ccc(S(=O)(=O)Nc2ncccn2)cc1)c1ccccc1	3507	-18	11	11	1.2	1	2

# Overlap with the part before: two compounds, followed by the next part.
cpd	Structure	Autofluor counter	PrP 5UTR inh	Mtb hypoxia inh	Mtb hypoxia inh growth	RN4220 kill	BJeLR lethal	Sa ugtP lethal
71	Cc1nc2ccc(Cl)cn2c1P(=S)(N1CCOCC1)N1CCOCC1	2950	-38	2	4	3.7	-11	-9
72	O=C(Nc1ccc(S(=O)(=O)Nc2ncccn2)cc1)c1ccccc1	3507	-18	11	11	1.2	1	2
73	Cc1ccc(C(=O)NC2CCN(CC(=O)NCc3cccs3)CC2)cc1	4265	-14	-5	-2	3.3	-1	9
74	CN1CCN(c2ccccc2/C=N/NC(=O)c2cccnc2)CC1	5673	-24	.	.	.	-9	.
75	COc1ccc(NC(=S)Nc2ccc(S(N)(=O)=O)cc2)c(OC)c1	4237	-8	1	2	1.3	-1	-5
76	Cc1nn(C)cc1/C=N/O	16844*	-28	.	.	.	-2	.
77	NC(=O)CCC1NC(=O)C(CO)NC(=O)c2cc([N+](=O)[O-])cc(I)c2NCCC(C(N)=O)NC(=O)C(Cc2ccc(O)cc2)NC1=O (stereo not given)	.	.	13	8	2.7	.	1
78	CCCCC(=O)Nc1ccccc1N1CCN(c2ccccc2)CC1	4255	-19	-1	2	-7.4	-2	-7
79	NC(=O)c1ncc(C(F)(F)F)cc1Oc1ccc(C(F)(F)F)cc1	2679	-9	.	.	-2.2	0	1
80	Cc1nn(C)cc1/C=N/NC(=O)c1ccc2c(c1)OCO2	4599	-22	.	.	.	4	.
81	CN1CCCCc2c1nc1ccccc1c2N (tested in a mixture with another compound)	6107	12	-3	13	0.6	-5	-2
82	CCOc1cc(CN2CCN(c3cccc(C(F)(F)F)c3)CC2)ccc1OC	5706	-15	7	2	4.9	-1	7
83	COc1ccc(OC)c(S(=O)(=O)NC(C)CCc2ccccc2)c1 (stereo not given)	4013	-21	-13	2	5.7	-3	5
84	O=C(OCc1ccccc1Cl)c1cc([N+](=O)[O-])ccc1N1CCOCC1	5511	-6	0	-2	6.3	0	7
85	CCOc1ccc(S(=O)(=O)NCc2ccc(Cl)cc2)c2cccnc12	2051	-15	0	4	6.3	-8	0
86	O=C(COC(=O)c1cccc(-n2cnnn2)c1)c1ccc(Br)cc1	.	-7	0	6	3.1	-7	2
87	N#Cc1cc(C(=O)c2ccccc2OCC(=O)Nc2ccccc2Cl)cn(C2CCCCC2)c1=O	2559	-27	6	11	3.2	-7	-10
88	Cc1ccc(NCC(=O)Nc2cccc(F)c2)cc1S(=O)(=O)N1CCCCCC1	6365	-12	.	.	.	-5	.
